Vaccinia Venus: qHTS for Stage-Specific Inhibitors of Vaccinia Orthopoxvirus: Venus Reporter Primary qHTS; 330,000 tested, 0.46% active; Vaccinia virus Venus reporter expression, fluorescence; Potency, µM (doses to about 36.5 µM), for the others: at the highest dose activity change, negative = inhibition, actives largely listed as inhibitors; active means well fitted inhibition curve with a large enough effect; inconclusive means small, poorly fitted or top-dose-only effect; inactive means no such curve, though single readings can be large or run the other way; tested in A549 cells; further: nearly all actives have a fitted effect of over 30% in size; inactives centre near -10
Vaccinia mCherry: qHTS for Stage-Specific Inhibitors of Vaccinia Orthopoxvirus: mCherry Reporter Primary qHTS; Potency, µM (top dose mostly 36.5 µM), without a hit: at the highest dose activity change, negative = inhibition, actives largely listed as inhibitors; 310,000 tested, 0.63% active; Vaccinia virus mCherry reporter infection, fluorescence; about a quarter of the inactives have no number; active = well fitted inhibition curve with a large enough effect; inconclusive = small, poorly fitted or top-dose-only effect; inactive = no such curve, though single readings can be large or run the other way; tested in A549 cells; further: nearly all actives have a fitted effect of over 35% in size; inactives centre near -10
Starred values were filed as active, the others as inactive; i = inactive; ? = inconclusive; . = not tested or not shown; & = joins results of further samples; [ ] = another dose, or the depositor's remark. On the % scale 0 is the no-effect control and ±100 the full control effect; potency means the concentration at half of the fitted maximal effect. Compounds as they come (roughly 0.87% active in at least one column).

compound	Vaccinia mCherry	Vaccinia Venus
Cc1cc(C)c(NC(=O)Cn2c(=O)nc(-c3ccccc3)c3cc(Cl)ccc32)c(C)c1	-14.7%	-5.6%
CCOc1ccc2nc(NC(=O)c3cccn(Cc4ccc(Cl)cc4)c3=O)sc2c1	-14.4%	-18.1%
COc1ccccc1C(=O)NCC(=O)Nc1ccccc1	.	-9.4%
O=[N+]([O-])c1cc(S(=O)(=O)N2CCCC2)ccc1N/N=C/c1ccccn1	-17.6%	-13.5%
CCCC12CN3CC(C)(CN(C1)C31C(=O)Nc3ccc(C)cc31)C2=O (stereo not given)	-1.8%	-8.0%
CCOC(=O)N1CCN(CC(O)COc2ccccc2C(C)C)CC1 (stereo not given)	.	-27.5%
COc1ccc(CNC(=O)C/C(C)=N/NC(=O)c2ccc(OC)cc2OC)cc1	-22.6%	-18.6%
CCCCCCC[n+]1ccc(/C=C/c2c(C)[nH]c3ccccc23)cc1	28.2µM*	256.1%[activator]
CCCCCCCCNCCS(=O)(=O)NN1CCOCC1	-7.0%	0.0%
O=C(Nc1cccc(Cl)c1)c1nc[nH]c1C(=O)NCCCCNC(=O)c1[nH]cnc1C(=O)Nc1cccc(Cl)c1	-13.6%	-12.4%
CCOC(=O)c1ccc(CC2S/C(=C(\C#N)C(C)=O)NC2=O)cc1 (stereo not given)	22.4%	108.9%[activator]
CCOCCCn1c(=S)[nH]c2cc(C(=O)N3CCN(C4CCCCC4)CC3)ccc2c1=O	-10.3%	-10.9%
Cc1cc(C)n(-c2cc(Oc3ccccc3)ncn2)n1	-11.4%	-12.1%
COc1ccc(/C=C2\SC(=S)N(CCC(=O)Nc3ccccc3C(=O)O)C2=O)cc1	-8.0%	-2.6%
O=C(Nc1ccon1)Nc1ccc(F)cc1F	i	-11.1%
COc1cccc(-c2c(C#N)c(SC)nc3cc(C)nn23)c1	-13.0%	-8.4%
O=C(c1cccc(Br)c1)N1CCN(S(=O)(=O)N2CCOCC2)CC1	i	-13.1%
COC(=O)c1cc(NC(=O)CN2C(=O)C(=O)N(C3CCCC3)C2=O)cc(C(=O)OC)c1	-13.7%	-6.9%
CC(=O)c1cccc(NC(=O)C2CC(=O)N(Cc3ccccc3)C2)c1 (stereo not given)	-10.3%	0.0%
NCCc1c[nH]c2ccccc12	-3.3%&-12.3%&-13.1%	2.7%&-3.6%&-7.7%
Cc1ccccc1C(=O)NC(Oc1ccccc1)C(Cl)(Cl)Cl (stereo not given)	-25.1%	-23.6%
CCN(CCNC(=O)CC1Oc2ccccc2NC1=O)c1ccccc1 (stereo not given)	i	-6.0%
CCn1nnc2cc(C(=O)O)ccc21	i	3.4%
CCn1c(SCC(=O)N2CCCCC2)nc(O)cc1=O	2.4%	5.9%
C=CCN(C#N)c1nc(OC)nc(N2CCCC2)n1	-14.5%	-25.3%
COc1ccc(NC(=O)c2c(NCc3sccc3C)sc3c2CCCC3)c(OC)c1	-9.7%	-15.9%
Cc1cc(NCCN)nc2ccccc12	-3.1%	-5.6%
Cc1cc(C)n(-c2nc3c(c(=O)[nH]c(=O)n3C)n2Cc2ccccc2)n1	-10.6%	0.4%
O=C(CC(=O)c1ccccc1)Nc1ccc2c(c1)OCCO2	.	-1.3%
CC(C)N(Cc1ccccc1)C(=O)COC(=O)c1ccccc1SCC(=O)N1CCCC1	-6.4%	3.5%
CC(C)OC(=O)c1c(NC(=O)c2cnn3c2NC(c2ccccc2)CC3C(F)(F)F)sc2c1CCCC2 (stereo not given)	.	-25.0%
O=C(Nc1ccc(F)cc1F)C1CCN(C(=O)c2cnn(-c3ccccc3)c2-n2cccc2)CC1	-19.5%	-15.2%
COc1ccc(/C=C/C(=O)O/N=C(\N)c2ccccc2)cc1OC	-13.2%	-5.6%
COC(=O)CSc1nnc(-c2ccco2)n1Cc1ccco1	.	-4.2%
CCc1nc2ccc(C(=O)NCCN3CCOCC3)cn2c1N(CC)CCOC	43.9%[activator]	-5.5%
COc1ccc2c(C)cc(SCC(=O)Nc3cccnc3Cl)nc2c1	?	-3.4%
O=C(CSc1nnc(-c2ccncc2)n1Cc1ccco1)N1c2ccccc2Sc2ccc(Cl)cc21	.	14.0%
Cc1cc(C)cc(C(=O)NCC(=O)OCC(=O)Nc2ccc(C)cc2Br)c1	i	-9.9%
COc1ccccc1N1CCN(C(=O)c2ccncc2)CC1	-12.0%	-4.7%
O=C(c1cccn2c(=O)c3cc(Cl)ccc3nc12)N1CCN(c2ccccc2F)CC1	-16.7%	0.6%
Nc1c(C(=O)Nc2ccc(Cl)c(C(F)(F)F)c2)sc2nc(-c3ccncc3)ccc12	-19.6%	-14.9%
Cc1ccc(NC(=O)/C=C\C(=O)O)c([N+](=O)[O-])c1	-13.5%	-2.0%
CN1OC[C@@H]2CN(Cc3cc(Cl)cc(Cl)c3)[C@H](c3cccc(Br)c3)C[C@@H]21	-3.3%	0.0%
Cc1nn(C)c(C)c1S(=O)(=O)N(CC(=O)NCCc1ccc(Cl)cc1)c1ccc(C(C)C)cc1	-12.1%	-4.2%
CC(C)NC(=O)C1(C)CCN1C(=O)c1cccc(Cl)c1 (stereo not given)	i	5.7%
O=C(CSc1nccn1Cc1ccccc1)NC1CCCC1	-11.4%	-6.7%&-6.8%
CCN1C(=O)/C(=C/c2ccc(C)s2)NC1=S	-21.6%	-11.1%
CCn1c(=O)c2cc(C(=O)N(CCN(C)C)Cc3ccccc3)sc2c2ccccc21	?	-19.3%
O=C(Nc1nc(-c2cccs2)c(-c2cccs2)s1)C1(c2ccccc2)CC1	i	-7.5%
CCC1(c2ccc(Cl)cc2)NC(=S)N(c2ccccc2)N1 (stereo not given)	-13.7%	-8.2%

Next part.
compound	Vaccinia mCherry	Vaccinia Venus
Cc1ccc(C(O)c2ncc(-c3ccc(F)cc3)[nH]2)cc1F (stereo not given)	i	-14.6%
O=C1C(Cl)=C(NCCc2ccccc2)C(=O)N1CCc1ccccc1	-2.2%	6.9%
O=C(/C(=N/N=C/c1ccc(O)c(O)c1O)c1ccccc1)c1ccccc1	-21.8%	-27.3%
COc1ccc2c(c1)O[C@H]1c3ccc(O)cc3OC[C@@H]21	-15.7%	-14.0%
C[C@H](O)[C@@H]1C(=O)N2CCc3c([nH]c4ccccc34)[C@@H]2C[C@@H]1N(C)S(=O)(=O)c1ccccc1	-7.9%	-14.3%
O=C(NCc1cccs1)c1ccc(Cl)c(S(=O)(=O)N2CCOCC2)c1	i	-7.7%
COc1ccc(C2c3c(oc4ccccc4c3=O)C(=O)N2c2ccc(C)cn2)cc1OC (stereo not given)	-5.8%	-6.4%
COC(=O)c1cccc(C23CC4(C2)[C@H](CN(Cc2cccnc2)[C@@H]4c2ccccc2)C3c2ccc(C(F)(F)F)cc2)c1 (stereo not given in full)	?	?
CC1CCCN(C(=O)COC(=O)c2ccc[nH]c2=O)C1 (stereo not given)	.	-13.5%
Cc1ccc(S(=O)(=O)Nc2ccc(-c3ccc(N4CCCCCC4)nn3)cc2)cc1C	-25.4%	-19.9%
CCOCCCNC(=O)c1ccc2c(=O)n(CCc3ccccc3)c(=O)[nH]c2c1	2.4%	13.5%
Nc1nc2c(nc(Br)n2C2CC(O)C(CO)O2)c(=O)[nH]1 (stereo not given)	i	0.0%
O=C(NCc1cccc(F)c1)C1CCC(=O)N(C2CC2)C1 (stereo not given)	-16.0%	-2.9%
CCN1CCc2c(sc(NC(=O)Cc3ccccc3)c2C(=O)OC)C1	-23.3%	-15.5%
O=C(Nc1ccc(F)cc1)C(CCc1ccccc1)N1CCN(c2ccncc2)CC1 (stereo not given)	i	-16.7%
COc1ccc(CNS(=O)(=O)c2ccc3c(c2)C(C)(C)C(=O)N3C)cc1OC	-11.7%	-4.4%
CC(=O)NCCNC(=O)C1Cc2c(-c3ccc4c(c3)OCO4)ccnc2O1 (stereo not given)	36.6%[activator]	6.8%
CN1CCN(c2cc(-c3ccccc3)nc3cc(-c4ccc(F)cc4)nn23)CC1	.	-16.7%
COc1ccc(C(=O)C2CCCN(Cc3ccon3)C2)cc1OC (stereo not given)	-1.3%	-20.1%
O=C1CSC(=S)N1/N=C/c1cc(Br)c(O)c(Br)c1	133.5%[activator]	.
COc1ccccc1NC(=O)C(=O)NCC(c1ccco1)N1CCc2ccccc21 (stereo not given)	-20.8%	-12.1%
Cc1ccc(C(=O)Nn2cnnc2)cc1[N+](=O)[O-]	-13.9%	-12.6%
O=C(O)c1nn(-c2ccc(Cl)cc2)ccc1=O	i	-6.7%
CCC(C(=O)OCC(=O)Nc1ccc(Cl)c(S(=O)(=O)N(C)C)c1)c1ccccc1 (stereo not given)	-18.7%	-34.5%
Cc1cccc(NC(=S)NCc2cccn2C)c1	i	-10.7%
C/C(=N\NC(=O)CCc1ccccc1)c1ccc(Br)cc1	-5.0%	-13.6%
Cn1c(C(=O)N2CCC(C(=O)N3CCOCC3)CC2)cc2sccc21	i	-2.3%
O=C(NCC(=O)N1CCCCC1)c1ccc(Br)o1	-25.4%	-11.6%
O=C(CSC1=Nc2ccccc2C2CC=NN12)Nc1ccc(F)cc1Cl (stereo not given)	-11.1%	-15.7%
CCOC(=O)C1(C)C=C(Nc2ccc(Br)cc2)C(=O)N1c1ccccc1 (stereo not given)	-18.0%	-14.2%
Cc1nn(-c2ccccc2)c2[nH]c(=O)cc(C(F)(F)F)c12	-2.3%	-3.8%
O=C(NCc1ccccc1)C1=C[C@@H](c2ccc(Br)cc2)C[C@@H](OCCCCO)O1	-16.2%	-27.1%
CC(=O)c1cccc(NC(=O)CN(c2ccccc2)S(C)(=O)=O)c1	.	-15.0%
Nc1cc(-c2ccc(Cl)cc2)nn1S(=O)(=O)c1ccccc1	-12.9%	-17.8%
Cc1cccc(C(=O)Nc2ccc(N3CCC(CCN4CCOCC4)CC3)c(C(=O)O)c2)c1	i	-6.4%
COc1ccccc1CNS(=O)(=O)CCNC1CC1	i	2.2%
Cc1ccc(O)c(-c2cc(C(=O)Nc3ccc(S(=O)(=O)Nc4nccc(C)n4)cc3)[nH]n2)c1	-19.1%	-6.0%
CC1CCCC(NC(=O)C2CCN(S(=O)(=O)N3CCCCCC3)CC2)C1C (stereo not given)	-12.5%	-5.7%
COc1ccc(CCN=C(N)Nc2nc(C)cc(C)n2)cc1	?	?
CCOC(=O)c1ccccc1NC(=O)COC(=O)C1CC(=O)N(CCc2ccccc2)C1 (stereo not given)	i	-12.5%
CCCn1nnnc1-c1cccc(Cl)c1	-14.8%	-8.5%
CCn1c(SCc2ccc(C(=O)Nc3nccs3)cc2)nnc1-c1ccc(NC(C)=O)cc1	.	-28.7%
O=C(C1Cc2ccccc2CN1C(=O)c1ccccc1)N1CCN(c2ccccc2)CC1 (stereo not given)	-12.9%	-4.1%
CCc1ccc(-c2cc(C)no2)cc1S(=O)(=O)N1CCN(c2ccccc2F)CC1	-11.9%	-2.7%
O=C1C2C3C=CC(C4CC34)C2C(=O)N1c1ccc2c(c1)OCO2 (stereo not given)	-8.2%	-13.8%
CCN(CC)CCC#CC(O)(c1ccccc1)c1ccccc1	i	-16.1%
CCOC(=O)c1nc(-c2ccccc2)oc1N(C)C	.	?
CCOc1ccc(N2CC(C(=O)Nc3ccc(N4CCOCC4)cc3)CC2=O)cc1 (stereo not given)	i	-15.2%
CC(c1ccon1)N(C)Cc1cn[nH]c1-c1ccc(F)cc1F (stereo not given)	?	?
COc1ccc(-c2[nH]ncc2CN(C)C(C)c2cccs2)c(F)c1 (stereo not given)	-14.9%	-17.1%

One compound at a time (already shown). Screens in order: Vaccinia mCherry	Vaccinia Venus
`O=C(Nc1ccc(F)cc1F)C1CCN(C(=O)c2cnn(-c3ccccc3)c2-n2cccc2)CC1` as listed: -19.5%	-15.2%
`O=C(c1cccn2c(=O)c3cc(Cl)ccc3nc12)N1CCN(c2ccccc2F)CC1` as listed: -16.7%	0.6%
`COC(=O)c1cc(NC(=O)CN2C(=O)C(=O)N(C3CCCC3)C2=O)cc(C(=O)OC)c1` as listed: -13.7%	-6.9%

The list goes on.
compound	Vaccinia mCherry	Vaccinia Venus
NC(Cc1ccc(Cl)cc1)c1csc(Nc2ccc(C(=O)NCCCO)cn2)n1 (stereo not given)	0.4%	-3.2%
Cc1ccc(S(=O)(=O)N2CCN(C(=O)COc3ccc(NC(=O)c4ccco4)cc3)CC2)cc1	-17.4%	-11.4%
CC(NC(=O)C1CCOCC1)c1nnc2n1CCN(Cc1cc3c(cc1Cl)OCO3)CC2 (stereo not given)	0.0%	-20.7%
O=C(COC(=O)/C=C/c1ccccc1)Nc1ccc(Cl)cn1	-11.0%	-4.1%
CCOC(=O)C1CCCCN1C(=O)CCc1c(C)nc2cc(-c3ccccc3)nn2c1C (stereo not given)	i	-23.0%
CCn1c(SCC(=O)Nc2nc(C)cs2)nnc1-c1ccncc1	i	-3.2%
CC(C)Cc1nn2c(=O)cc(O)nc2s1	i	-2.4%
CN(C)C1(CNC(=O)Cc2ccccc2F)CCCCC1	i	-14.0%
